Source: PubChem BioAssay (National Center for Advancing Translational Sciences (NCATS))
D2 potentiator: potentiates the human D2 dopamine receptor allosterically; P14416; potentiation, % (concentration not given with the values); hit rate 0.23% among 360,000; DiscoveRx D2 beta-arrestin cells, luminescence, 90 min; 100% = 57 uM dopamine signal; active = potentiation of 50% or more; inconclusive = 30% to 50%; inactive = 30% or less;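 note: compound concentration not given in the record; tested on top of an EC20 dose of dopamine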
Target sequence (P14416 whole entry, looked up): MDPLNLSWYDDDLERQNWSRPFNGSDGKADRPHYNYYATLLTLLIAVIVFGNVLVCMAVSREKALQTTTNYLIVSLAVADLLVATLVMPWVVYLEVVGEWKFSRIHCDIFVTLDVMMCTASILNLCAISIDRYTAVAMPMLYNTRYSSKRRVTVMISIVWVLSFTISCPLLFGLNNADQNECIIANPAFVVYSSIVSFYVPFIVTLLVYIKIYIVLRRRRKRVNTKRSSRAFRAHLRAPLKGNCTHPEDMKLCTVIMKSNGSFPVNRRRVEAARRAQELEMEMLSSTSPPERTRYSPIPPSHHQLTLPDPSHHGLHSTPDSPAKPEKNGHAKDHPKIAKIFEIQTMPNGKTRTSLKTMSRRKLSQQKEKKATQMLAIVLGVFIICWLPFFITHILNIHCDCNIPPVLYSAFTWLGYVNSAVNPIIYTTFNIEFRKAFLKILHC
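PathHunter D2 cells, attached overnight at 37 deg C, received compound in DMSO plus dopamine at EC20 (50 nM final) for 90 min at 37 deg C. Beta-arrestin recruitment was read as luminescence after 1 h with detection reagent at ambient temperature.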
CtBP-E1A blk: inhibitors of CtBP/E1A interaction | AID 651724 | hit rate 0.49% among 340,000 | AlphaScreen GST-E1A/His-CtBP binding, 1536-well; hits give low values; control for the full effect not named in the record | activity change, % (no concentration beside the values); in the data active means activity change below about -65%; inconclusive means about -30% to -65%; inactive means above about -30%; note: % is set by controls: 0 for no effect and ±100 for the full control effect; compound concentration not given in the record
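AlphaScreen with 125 nM GST-E1A and 125 nM His-CtBP (5X stocks) in Tris pH 8.0, 300 mM NaCl, BSA, Tween 20, TCEP. Compounds preincubated 2 h at 37 deg C, then glutathione donor/nickel acceptor beads added for 1 h at 37 deg C in dark.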
Six1-Eya2 inh: inhibitors of human Six1/Eya2 interaction; AlphaScreen GST-Six1/His-Eya2 binding, biochemical; hits give low values; control for the full effect not named in the record; activity change, % (no concentration beside the values); hit rate 0.56% among 360,000; in the data active = activity change below about -65%; inconclusive = about -30% to -65%; inactive = above about -30%; note: % is set by controls: 0 for no effect and ±100 for the full control effect; compound concentration not given in the record
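GST-Six1 + His-Eya2 (5X stock: 250/500 nM); Tris pH 8.0, 300 mM NaCl, 0.05% BSA, 0.02% Tween 20; GSH donor/Ni acceptor beads; 1 h 37 °C dark; AlphaScreen readout.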
TRPML1 ag: human mucolipin-1 channel agonism; activation, % (test concentration not listed); hit rate 0.12% among 410,000; TRPML1-expressing cells, Ca2+ dye fluorescence, FDSS; host cell line not named in the record; reference of the full effect not given here; in the data active = activation above about 50%; inconclusive = about 30% to 50%; inactive = below about 30%; note: 0% is about no effect; the text of the record puts the active cut at 80%
Target sequence (Q9GZU1 whole entry, looked up): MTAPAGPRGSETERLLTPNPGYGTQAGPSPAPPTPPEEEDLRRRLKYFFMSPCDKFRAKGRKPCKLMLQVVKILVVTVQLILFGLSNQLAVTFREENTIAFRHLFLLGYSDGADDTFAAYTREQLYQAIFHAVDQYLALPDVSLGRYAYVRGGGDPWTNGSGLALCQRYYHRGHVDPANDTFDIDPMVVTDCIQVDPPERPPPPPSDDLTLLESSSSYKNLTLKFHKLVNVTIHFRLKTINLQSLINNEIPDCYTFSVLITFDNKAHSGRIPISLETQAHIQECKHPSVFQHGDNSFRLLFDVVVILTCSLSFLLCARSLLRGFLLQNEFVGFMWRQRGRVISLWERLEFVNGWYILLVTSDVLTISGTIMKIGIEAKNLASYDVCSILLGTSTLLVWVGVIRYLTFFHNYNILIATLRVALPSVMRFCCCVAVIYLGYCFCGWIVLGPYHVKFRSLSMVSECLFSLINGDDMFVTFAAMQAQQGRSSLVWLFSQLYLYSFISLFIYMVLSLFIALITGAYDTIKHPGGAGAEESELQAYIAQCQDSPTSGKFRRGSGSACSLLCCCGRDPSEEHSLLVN
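Calcium fluorescence on an FDSS kinetic reader gave the read-out. Tet-induced TRPML1-DL cells were plated overnight, dye-loaded (Ca8 with quencher, 45-90 min, room temperature, dark), then read 110 s after compound addition, and again 110 s after 4uM final 54-4 (EC80).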
PINK1 expr mod: PINK1 expression modulation | PINK1 immunofluorescence, high-content cytometry, 24 h | Potency, µM (highest dose often 76.6 µM), for inactives: at the top dose activation (PINK1 increase), most hits filed as activators | hit rate 0.2% among 410,000 | AID 624263; active = well fitted activation curve with a large enough effect; inconclusive = small, poorly fitted or top-dose-only effect; inactive = flat fitted curve, though single readings scatter; cell line not stated here;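 note: potency is the fitted concentration of half-maximal effect; % of control where 0% means no effect; nearly all actives have a fitted effect of over 65% in size; a mitochondrial uncoupler was the plate control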
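A stable cell line was treated with compounds at 5 concentrations for 24 hours, with CCCP as control. PINK1 levels and mitochondrial localization were measured by immunofluorescence with mitochondrial, cell and nuclear markers after fixation, read by laser-scanning cytometry.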
D2 ag: agonists of human D2 dopamine receptor (beta-arrestin); P14416; DiscoveRx PathHunter D2 beta-arrestin, luminescence, 90 min; 100% = 57 uM dopamine signal; activation, % (concentration not given with the values); hit rate 0.084% among 360,000; AID 624465; in the data active = activation above about 40%; inconclusive = about 15% to 40%; inactive = below about 15%; note: compound concentration not given in the record; the text of the record calls up to 30% inactive
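Agonist mode: compounds alone added to overnight-plated D2 PathHunter cells for 90 min at 37 C, with 57 uM final dopamine (EC100) defining full response. Beta-arrestin recruitment detected by chemiluminescent reagent, read after 1 h at ambient temperature.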
* hit, by the source's call; ? = inconclusive; nt = no result given; & = joins results of further samples; [ ] = dose if it differs, or a comment.

The line under a structure holds: D2 potentiator, CtBP-E1A blk, Six1-Eya2 inh, TRPML1 ag, PINK1 expr mod, D2 ag
- Cc1cc(NC(=O)CSc2ccc(-c3ccc(Br)cc3)nn2)no1
  5, 9, 2, 0.4, 2.1%, 3.5
- O=C(c1cccc(Cl)c1Cl)N1CCN(c2ccccn2)CC1
  -2, 3, 6, -0.6, -4.3%[38.3 µM], 6.5
- CC(=O)N1CCN(C(=O)CNc2cc(C(F)(F)F)ccc2OCC(F)(F)F)CC1
  0, 3, 0, 0.1, -1.3%, -3.1
- O=C(c1ccc(N2CCCCS2(=O)=O)cc1)N1CCN(c2ccc(N3CCOCC3)nn2)CC1
  -3, 5, 0, -1.2, 4.0%, -2.5
- COc1ccccc1CNC(=O)COC(=O)c1cc(S(=O)(=O)N2CCOCC2)ccc1Cl
  -18, 0, 20, 2.6, -0.8%, -3.5
- O=C(/C=C/c1ccco1)Nc1nnc(-c2ccco2)s1
  -4, nt, -1, 1.3, 13%, -4.2
- CCOC(=O)C(C)Oc1ccc(NC(=O)C(Cl)Cl)cc1 (stereo not given)
  -11, 4, 3, 1.0, -0.5%, -3.7
- Cc1ccccc1OC(=O)c1cccnc1
  2, nt, -2, -0.5, -1.5%, -2.3
- O=C(COC(=O)c1cc(S(=O)(=O)N2CCOCC2)ccc1F)NC1CC1
  15, -19, 25, 0.1, -0.9%, 2.8
- O=C(c1cc(C2CC2)on1)N1CCN(c2ccc(F)cc2)CC1
  -7, 0, -1, 0.1, 0.4%, -0.1
- OC(COCc1ccccc1F)CN1CCCCC1 (stereo not given)
  -14, -4, -12, 0.5, 1.4%, -2.0
- C(=NNc1nnn(Cc2ccccc2)n1)c1ccccc1
  -15, 5, -1, -0.8, 6.6%, -2.4
- O=C(COC(=O)c1ccccc1)NCCCCc1ccccc1
  -14, -5, 2, 0.2, 0.1%, -2.2
- Cc1ccccc1NC(=O)C(C)N1C(=O)c2ccccc2C1=O (stereo not given)
  -1, 35, 7, 0.0, -0.4%, -2.7
- CN(C)CC(=O)Nc1ccc2c(c1)[C@H]1C[C@H](CC(=O)NCc3ccc4c(c3)OCO4)O[C@H](CO)[C@H]1O2
  7, 5, 9, -0.2, 3.9%, 3.1
- COc1ccc(OC)c(S(=O)(=O)NC2CCCCNC2=O)c1 (stereo not given)
  -9, 6, -4, 0.7, 0.1%, 12
- O=C(Nc1c(-c2ccccc2)nc2c(Br)cc(Br)cn12)c1ccco1
  -8, -3, 1, 2.4, 4.9%, 0.0
- CCN1C(=NCCOC)N[C@@H](c2cccc(C(F)(F)F)c2)C(C(=O)OC)=C1C
  -14, -1, -1, 0.3, -0.1%, -4.2
- O=C(CSc1nnc(-c2cccc(S(=O)(=O)N3CCCCC3)c2)o1)c1ccc[nH]1
  -4, -3, -6, -0.5, -0.4%, -1.8
- CCn1c(SCC(=O)N(C)Cc2ccc(OC)c(F)c2)nc2cc(S(N)(=O)=O)ccc21
  -5, 2, 4, -0.6, 3.7%, -4.6

Additional entries follow.
The line under a structure holds: D2 potentiator, CtBP-E1A blk, Six1-Eya2 inh, TRPML1 ag, PINK1 expr mod, D2 ag
- CC1CN(S(=O)(=O)c2cccc3nsnc23)CC(C)O1 (stereo not given)
  -7, 10, 2, 0.1, -6.3%[38.3 µM], 0.8
- C[C@H](CO)N1C[C@H](C)[C@@H](CN(C)S(=O)(=O)c2ccccc2)Oc2c(NC(=O)C3CC3)cccc2C1=O
  -7, 5, 4, 0.7, 0.5%, -2.2
- Cc1ccc(NC(=O)CN2C(=O)N/C(=C\c3cccn3-c3cccc(C(=O)O)c3)C2=O)cc1
  10, 13, ?, 1.3, -0.3%, -1.2
- COc1ccc2cc(CNCCOCCOCCNCc3ccc4cc(OC)ccc4c3)ccc2c1
  -23, -2, 4, 0.0, -7.2%, -1.6
- CCCc1cc(C(=O)NNC(=S)NCC)c2ccccc2n1
  -46, -2, 0, 2.1, -1.1%, -9.0
- O=C(O)c1cc(NS(=O)(=O)c2cccc3nsnc23)cc(C(=O)O)c1
  -6, nt, 1, 0.0, 5.5%, -0.5
- COc1ccc(/C=N/NC(=O)CSc2nnc(CCCc3ccc(OC)c(C)c3)o2)cc1
  -19, -18, -27, 0.3, 0.2%, -2.2
- CCn1nc(C(=O)NCCc2ccc3c(c2)OCCO3)c2ccccc2c1=O
  -6, -4, -2, 1.0, 3.8%, 2.4
- Nc1nc(O)c(CC(=O)O)s1
  -8, 3, -5, -0.5, -0.1%, -3.8
- O=C1Cc2ccccc2C(=O)N1c1ccccc1
  1, 7, 3, -0.8, 0.3%, -0.6
- COc1ccc(CNC(=S)Nc2ccccc2)cc1Cl
  -12, -15, -8, nt, 3.0%, 0.0
- CCN(CC)CCCNc1oc(-c2cccc(Cl)c2)nc1C#N
  7, -8, -3, 0.6, -3.0%[38.3 µM], 1.0
- CC1(C(=O)NS(=O)(=O)c2cccc(Cl)c2)CCN1C(=O)CC1CCCC1 (stereo not given)
  -8, 3, 1, 0.3, -0.4%, -3.6
- Cc1ccc2c(CN3CCN(CCO)CC3)cc(=O)oc2c1C
  -14, -1, 1, 1.3, -4.8%[38.3 µM], -1.1
- Cc1cc(NCCCO)n2c(nc3ccccc32)c1C#N
  3, -9, -2, -0.4, 0.1%, 11
- O=C(CCc1nnc2ccc(NCc3ccco3)nn12)Nc1ccccn1
  0, nt, -14, 3.0, -0.1%, 3.6
- CCOC(=O)c1c(NC(=O)CSc2nnc(-c3cccnc3)n2Cc2ccco2)sc(C)c1C
  -28, -23, 0, 1.3, -0.3%, 1.6
- COc1ccc(Cl)cc1C(=O)Nc1ccc(Br)c(C)n1
  -6, nt, 3, 0.8, 2.7%, 1.0
- O=C(Nc1ccc(Cl)cc1F)c1ccc(-n2cncn2)cc1
  -1, 6, 4, -0.3, 0.7%, -2.8
- O=C(COc1ccc(Br)cc1Cl)NC(=O)Nc1ccc2c(c1)OCCO2
  -1, 9, 0, -0.5, 4.7%, -2.6

The results go on.
The line under a structure holds: D2 potentiator, CtBP-E1A blk, Six1-Eya2 inh, TRPML1 ag, PINK1 expr mod, D2 ag
- Cc1cc(=O)oc2cc(NC(=O)C(C)Oc3cccc(Cl)c3)ccc12 (stereo not given)
  -27, -2, 4, 0.9, 8.4%, 1.3
- COc1ccc(CCNC(=O)C2CCN(C(=O)c3ccc(Br)cc3)CC2)cc1
  -6, 3, -2, 0.6, -1.4%, -0.2
- CCN(CCO)c1ccc(NC(=S)Nc2cccc(S(=O)(=O)N(C)C)c2)cc1
  6, nt, -14, 2.2, 4.8%, ?
- O=C(c1ccc(Cl)nc1)N1CCC(Cc2ccccc2)CC1
  -5, 10, 1, 0.5, 0.3%, -1.2
- COc1ccc(OCCOC(=O)C(C)NS(=O)(=O)c2ccc(NC(C)=O)cc2)cc1 (stereo not given)
  0, nt, 2, -0.1, 6.8%, -3.5
- CNC(=O)c1c(Cl)cnn1-c1ccc(F)cc1
  0, 10, 7, 0.5, 2.9%, 4.5
- O=C(COC(=O)c1ccc2ncsc2c1)Nc1cc(Cl)ccc1F
  -1, 1, -1, 1.9, 0.0%, -4.9
- O=C1C2C(C(=O)N1Cc1cccnc1)C1C=CC2C12CC2 (stereo not given)
  -11, 6, 0, -0.7, 0.0%, -5.7
- COc1ccc(S(=O)(=O)N2CCOC23CCN(C(=O)c2ccccc2Br)CC3)cc1
  -4, 1, 7, -0.5, 4.0%, -2.5
- CN(CCCNC(=O)CCC(=O)N1CCOc2ccc(Cl)cc21)Cc1ccccc1
  -12, -15, -7, -0.3, 1.0%, -0.4
- COc1ccc(CNC(=O)C[C@@H]2C[C@H]3c4cc(NC(=O)NC5CCCC5)ccc4O[C@H]3[C@H](CO)O2)cc1
  0, -16, -1, 0.2, 0.3%, -1.3
- C[C@@H]1CN([C@H](C)CO)C(=O)c2cc(C#Cc3ccccc3F)cnc2O[C@@H]1CN(C)S(=O)(=O)c1ccccc1F
  -1, -8, 1, 0.0, 0.2%, -1.8
- CC(OC(=O)c1oc2ccccc2c1COc1ccccc1)C(=O)NC(N)=O (stereo not given)
  -1, -8, -9, 2.6, 8.3%, -5.8
- O=C(CCN1CCOCC1)Nc1ccc2c(c1)CCC2
  -23, 2, -2, -0.2, 1.6%, -5.4
- COc1ccc(S(=O)(=O)NCCc2ccccc2)cc1OC
  -8, -12, 9, -0.9, -1.6%, -0.8
- CCOc1cc(Cl)c(NC(=O)CC)cc1OCC
  12, -4, 18, 0.8, 3.3%, -0.9
- O=C(NCCc1ccccc1)C1CCC(CNc2c(N3CCCCC3)c(=O)c2=O)CC1 (stereo not given)
  -7, -1, -7, -0.8, 0.6%, -6.2
- O=C(OCN1C(=O)c2ccccc2C1=O)c1cc(S(=O)(=O)N2CCOCC2)ccc1F
  8, -5, 1, -0.5, 5.3%, -1.6
- CNC(=O)CN1C(=O)COc2ccc(S(=O)(=O)N3CCCCCC3)cc21
  -7, 8, -1, -0.4&1.6, 1.0%&2.0%, 0.0
- COC(=O)C1=C(C)N(c2ccc(C)cc2)/C(=C/c2cccs2)C1=O
  -17, 1, 3, 3.1, 7.5%, -2.6

(continued)
The line under a structure holds: D2 potentiator, CtBP-E1A blk, Six1-Eya2 inh, TRPML1 ag, PINK1 expr mod, D2 ag
- COc1cccc(-c2nc(-c3ccccc3)c3ccc(Cl)cc3n2)c1
  nt, 0, 13, 0.0, 1.7%, nt
- Cc1cc2oc(=O)cc(CN3CCCCC3C)c2cc1C(C)C (stereo not given)
  4, 2, -4, -0.7, ?, -4.2
- Cc1ccc(Nc2ccc(C(=O)O)cc2N)cc1
  ?, -8, 1, 0.1, -1.1%, 6.7
- Cc1ccc2[nH]c(C(=O)O)c(NC(=O)CN3CCN(c4cccc(C)c4C)CC3)c2c1
  -41, -16, -19, 0.9, 0.5%, -4.6
- CCn1cnc2c1c(=O)n(CC(=O)Nc1cc(C)on1)c(=O)n2Cc1ccccc1
  -16, 10, -5, -0.6, -4.1%[38.3 µM], -1.3
- COc1ccc(-c2noc(CCCC(=O)Nc3ccc(C(N)=O)cc3)n2)cc1
  3, 2, 0, 0.3, 10%[38.3 µM], -0.5
- O=C1CCCN2N=C(SCC(=O)N3CCCCC3)SC2=N1
  -6, 2, 5, -0.5, 1.2%, -3.3
- CC(C)(C)c1ccc(C(=O)NCC2CCCN2S(=O)(=O)c2ccccc2)cc1 (stereo not given)
  -2, 6, 1, 3.9, 6.4%, -1.2
- Cc1ccccc1NC(=O)CC(=O)c1ccccc1
  -12, nt, 5, -0.2, 1.0%, -4.3
- O=C1C=C(c2ccc3ncccc3c2)C[C@@H](c2ccc(F)cc2)C1
  -7, nt, -19, 1.7, 4.7%, 1.0
